MT1-MMP act inh – blockers of MT1-MMP proenzyme processing, primary screen, HT1080 RFP-PRO-GFP cells, GFP/RFP fluorescence; Matrix metalloproteinase-14 (Homo sapiens), P50281; GFP/RFP ratio change, % at 20 µM; AID 651647, 2012; GFP/RFP ratio fluorescence, overnight; percent of plate control window, DMSO zero; 0.061% of 360,000 active;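 active = GFP/RFP ratio change of at least 30% with cell ATP level not reduced by more than half and red fluorescence within 50% of control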; note: strong numbers were not always called active
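Assay system: RFP-PRO-GFP reporter HT1080 cells; read-out basis: GFP/RFP fluorescence ratio; benchmarks: DMSO wells and RFP-L50D-GFP cells; doses: 20 µM single dose, 1% DMSO; schedule: overnight cell settling, then overnight compound exposure, 37 °C, 5% CO2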
UUG fidelity – modulators of yeast start codon fidelity, primary screen, whole organism, S. cerevisiae, single point, plate reader; S. cerevisiae UUG-firefly luciferase reporter, luminescence/redox ratio; activity score, % at 18.7 µM; 0.13% of 350,000 active; AID 602363, 2012;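 active = replicate mean at a twofold rise or more, about +100% in these data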;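 note: firefly luciferase made from a UUG start codon reports start codon fidelity; reporter light over untreated wells divided by growth signal over untreated wells; some hits fall short of that in this replicate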
MT1-MMP act inh RFP – second read-out of MT1-MMP act inh, no call of its own (marks repeat the call); RFP signal change, %; measured here: RFP expression control read;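 0 = vehicle wells; hits needed this value within 50% of zero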
Numbers without * were called inactive.

SMILES	MT1-MMP act inh	MT1-MMP act inh RFP	UUG fidelity
COc1ccccc1N(C)S(=O)(=O)c1ccc(C(=O)Nc2cccc(S(=O)(=O)N3CCOCC3)c2)cc1	-11	-29	-8
N#Cc1ccc(OCC(=O)Nc2ccc(N3CCCC3)cc2)cc1	-2	2	-2
Cc1ccc(NC(=O)C2CCCN2C(=O)c2cccs2)cc1C (stereo unspecified)	-3	2	-14
COC(=O)c1ccc2nc(-c3ccc(F)cc3)c(Cc3ccccc3)n2c1	-7	-5	17
O=C(CC(=O)c1ccccc1)c1ccccc1	2	4	-14
Cc1ccc(NC(=O)Cn2nc(C(=O)O)c3ccccc3c2=O)cc1S(=O)(=O)N1CCCCCC1	3	-4	-5
Cc1ccc(C)c(SCC(=O)NC(=O)NC2CCCC2)c1	2	-3	7
O=C(COC(=O)c1ccccn1)NC(=O)c1ccccc1	-1	2	-15
CNC(=O)OCN1C(=O)C2CC=CCC2C1=O (stereo unspecified)	3	4	-20
COc1cc(N2CCC(O)CC2)ccc1Nc1nnc(Cl)c(Nc2ccccc2S(C)(=O)=O)n1	4	-14	-9
Cc1ccc(C(=O)NNC(=O)C(NC(=O)c2cccc(C)c2)C(C)C)cc1 (stereo unspecified)	-6	-4	-3
COc1cccc(N2CCN(C(=O)CCC(=O)c3ccc(Cl)s3)CC2)c1	0	0	-11
CC(O)(c1cccc(F)c1)c1nc(-c2ccc3c(c2)OCO3)cs1 (stereo unspecified)	5	-4	-9
CC(=NNC(=O)c1ccncc1)c1ccc(Cl)cc1Cl	1	2	-21
CC(O)CC(=O)OC[C@]12CC[C@H]3[C@@](C)(CC[C@H]4C(C)(C)CCC[C@]34C)[C@@H]1CC(C1=CC(=O)OC1O)O2 (stereo partly specified)	-12	-31	2
Cc1cccc(NC(=O)c2ccc(OCc3c(C)noc3C)cc2)n1	-3	-19	-12
CN(CC(=O)Nc1ccc(Cl)c(C(F)(F)F)c1)C(=O)c1ccc(S(=O)(=O)N2CCOCC2)cc1	2	-10	6
Cc1ccc(S(=O)(=O)N(C)c2ccc(C(=O)NC3CCCCC3)cc2)cc1	-6	3	-17
Cc1ccccc1C(C)NC(=O)COC(=O)Cn1cc(C(F)(F)F)ccc1=O (stereo unspecified)	-1	6	-7
NS(=O)(=O)c1ccc(CCNC(=O)c2cccc(S(=O)(=O)N3CCCC3)c2)cc1	0	-1	-19
Cc1cccc(Oc2ncccc2[N+](=O)[O-])c1C	4	1	-13
COC(=O)C1=C(C)NC(C)=C(C(=O)OC)C1C(=O)OCC(=O)c1ccc(Br)cc1	1	4	-10
CN(C(=O)COC(=O)c1ccc(=O)n(Cc2ccccc2)n1)C1CCCCC1	3	0	2
Cc1ccc(NC(=O)C(C)OC(=O)c2cc(=O)[nH]c3ccccc23)cc1S(=O)(=O)N1CCOCC1 (stereo unspecified)	-5	1	-1
CCOc1ccc(S(=O)(=O)N2CCCCC2)cc1NC(=O)Cc1cccc(C(F)(F)F)c1	3	-2	-13
Cc1ccc(Cc2c(-c3ccc(Cl)cc3)nc3c(Cl)cc(C(F)(F)F)cn23)cc1	-3	-3	-13
CC(=O)c1ccc(S(=O)(=O)N2CCN(C(=O)c3ccc(N)c([N+](=O)[O-])c3)CC2)cc1	1	-1	-8
O=C(COC(=O)c1ccc(CO)cc1)Nc1ccc2ccccc2c1	2	1	-15
CC1NC(=O)COC1c1ccccc1 (stereo unspecified)	-4	1	-9
CCc1ccc2c(CC(=O)NNC(=O)c3ccncc3)coc2c1	1	2	-13
Cc1cccc(C)c1NC(=O)CN(C)CC(=O)c1c(N)n(Cc2ccccc2)c(=O)n(C)c1=O	3	-5	-9
Cc1cccc(C2=NN(c3ccccc3)[C@H](CO)[C@H]2c2ccccc2)c1	3	3	-3
CC(C)NC(=O)NC(=O)CSc1ccc(S(=O)(=O)N2CCCC2)cn1	0	1	-16
CC1(C)Cc2cccc(OCC(=O)NCc3ccccc3F)c2O1	-1	-4	-1
CCNC(=O)C1(C)CCN(C(=O)c2c(F)cccc2F)C1 (stereo unspecified)	2	1	-11
CSc1ccc(C(=O)Nc2cc(S(=O)(=O)N3CCOCC3)ccc2N2CCOCC2)cc1[N+](=O)[O-]	-6	-1	11
COc1ccccc1CNc1nc(NCc2cccc(OC)c2OC)c2sccc2n1	6	-21	-5
Cc1ccc([C@H]2N[C@]3(CCCN(Cc4cccn4C)C3=O)[C@H]3C(=O)N(C)C(=O)[C@@H]23)cc1	6	7	1
Cc1cccc(N(Cc2ccccc2)C(=O)CN2C(=O)NC3(CCCC3)C2=O)c1	0	-3	-3
O=C(OCc1cn([C@@H]2CN(Cc3cccs3)[C@@H](c3ccccc3)C[C@H]2O)nn1)c1ccccc1	-1	-3	-9

An excerpt from above in order of their number in MT1-MMP act inh RFP, ascending:
Structure,MT1-MMP act inh,MT1-MMP act inh RFP,UUG fidelity
CC(O)CC(=O)OC[C@]12CC[C@H]3[C@@](C)(CC[C@H]4C(C)(C)CCC[C@]34C)[C@@H]1CC(C1=CC(=O)OC1O)O2 (stereo partly specified),-12,-31,2
COc1cccc(N2CCN(C(=O)CCC(=O)c3ccc(Cl)s3)CC2)c1,0,0,-11
CCNC(=O)C1(C)CCN(C(=O)c2c(F)cccc2F)C1 (stereo unspecified),2,1,-11

Quoted at random: 5 entries already listed
SMILES	MT1-MMP act inh	MT1-MMP act inh RFP	UUG fidelity
COC(=O)C1=C(C)NC(C)=C(C(=O)OC)C1C(=O)OCC(=O)c1ccc(Br)cc1	1	4	-10
O=C(OCc1cn([C@@H]2CN(Cc3cccs3)[C@@H](c3ccccc3)C[C@H]2O)nn1)c1ccccc1	-1	-3	-9
CCOc1ccc(S(=O)(=O)N2CCCCC2)cc1NC(=O)Cc1cccc(C(F)(F)F)c1	3	-2	-13
Cc1cccc(N(Cc2ccccc2)C(=O)CN2C(=O)NC3(CCCC3)C2=O)c1	0	-3	-3
CCNC(=O)C1(C)CCN(C(=O)c2c(F)cccc2F)C1 (stereo unspecified)	2	1	-11

Going on with the list:
SMILES	MT1-MMP act inh	MT1-MMP act inh RFP	UUG fidelity
CCNC(=O)C1(C)CCN(C(=O)c2cccc(C#N)c2)C1 (stereo unspecified)	-3	2	-26
N=c1c(S(=O)(=O)c2ccccc2)cc2c(=O)n3ccccc3nc2n1C1CCCCC1	-11	-25	-18
CCc1cc(=O)oc2cc(OC(C)C(=O)N3CC[C@@]4(O)CCCC[C@H]4C3)ccc12 (stereo partly specified)	1	0	-12
CCCCN1C(=O)C(CC(=O)NC(c2ccccc2)c2ccccc2)CC(C(=O)N(CC)CC)=C1C (stereo unspecified)	0	-2	-12
COCCCN1C(=O)C(CC(=O)NCc2ccco2)CC(C(=O)N(C(C)C)C(C)C)=C1C (stereo unspecified)	0	1	5
O=C(COC(=O)/C=C/c1ccc2c(c1)OCO2)NCc1ccccc1	2	3	-20
CN(CC(=O)Nc1ccc(F)cc1)C(=O)CN1C(=O)NC(CCc2ccccc2)C1=O (stereo unspecified)	1	2	15
Cc1cccnc1NC(=O)CNC(=O)C1CCCCC1	-2	-3	-9
O=C(CCc1nc2ccccc2c(=O)[nH]1)N1CCN(S(=O)(=O)c2cc(Cl)ccc2Cl)CC1	0	0	-4
CC1=C(C(=O)N(C(C)C)C(C)C)CC(CC(=O)NCCCCc2ccccc2)C(=O)N1Cc1ccc(C(C)(C)C)cc1 (stereo unspecified)	-23	-18	4
Cc1cccnc1NC(=O)CNC(=O)c1ccccc1	-1	-2	-7
CC1(C)CC(NC(=O)c2ccc(F)cc2)CC(C)(C)N1	1	-1	-8
Cc1ccnc2nc(C(=O)OCC(=O)N(CC(C)C)C3CCS(=O)(=O)C3)nn12 (stereo unspecified)	-4	1	-9
CCN(CC)c1ccc(S(=O)(=O)N2CCCCC2)cc1NC(=O)C1CSC2(C)CCC(=O)N12 (stereo unspecified)	0	1	-8
N#CC(OC(=O)c1ccccc1)c1ccccc1 (stereo unspecified)	1	5	-16
O=C(Nc1ccccc1C(=O)Nc1ccc(Br)cn1)c1ccccc1Cl	-4	-3	-13
NC(=O)C1CC(=O)N(c2ccc(OCC(=O)N3CCCC3)cc2)C1 (stereo unspecified)	-2	3	-9
CC(C)C(NC(=O)CCNC(=O)c1ccccc1Cl)c1nc2ccccc2[nH]1 (stereo unspecified)	-8	-3	-18
Cc1noc(C)c1C(=O)OCC(=O)N(C)C1(C#N)CCCCC1	1	1	-13
CCc1ccc(OCC(=O)NNC(=O)c2cc(S(=O)(=O)N3CCOCC3)ccc2N2CCCC2)cc1	-3	2	15

Among those listed so far, these have an aryl thioether with sulfur outside any ring.
SMILES	MT1-MMP act inh	MT1-MMP act inh RFP	UUG fidelity
Cc1ccc(C)c(SCC(=O)NC(=O)NC2CCCC2)c1	2	-3	7
CC(C)NC(=O)NC(=O)CSc1ccc(S(=O)(=O)N2CCCC2)cn1	0	1	-16
CSc1ccc(C(=O)Nc2cc(S(=O)(=O)N3CCOCC3)ccc2N2CCOCC2)cc1[N+](=O)[O-]	-6	-1	11

(further entries)
SMILES	MT1-MMP act inh	MT1-MMP act inh RFP	UUG fidelity
CC1=C(C(=O)N(C(C)C)C(C)C)CC(CC(=O)NC2CCCCC2)C(=O)N1CCC1=CCCCC1 (stereo unspecified)	-2	-3	3
COc1ccc(NC(=O)c2cc(C3CCCCN3S(=O)(=O)c3ccccc3)on2)c(C)c1 (stereo unspecified)	1	-7	9
Cc1ccc(C)c(S(=O)(=O)N2CCN(C(=O)CNC(=O)c3sc4ccccc4c3Cl)CC2)c1	-5	-2	9
COc1cccc(-c2cccc(-c3nc(C(=O)NCc4ccc(Oc5ccccc5)cc4)cc4c3[C@H](CCO)N(S(=O)C(C)(C)C)C4)c2)c1 (stereo partly specified)	1	3	-16
Nc1ncnc2c1ncn2[C@@H]1O[C@H](C(=O)NS(=O)(=O)c2c(Cl)nc3sccn23)[C@@H](O)[C@H]1O	0	4	-16
COCCn1c(SCC(=O)Nc2cc(C)on2)nc2cc(Cl)ccc2c1=O	3	3	1
CC(NC(=O)COC(=O)Cc1cccs1)c1ccc(F)cc1 (stereo unspecified)	4	0	-14
CC1CCCC(C)N1C(=O)CSc1nnc(-c2ccco2)n1C (stereo unspecified)	3	4	-5
COc1ccc(C(=O)N2[C@@H](C(C)C)COc3cc(Br)ccc3S2(=O)=O)cc1	-2	-1	-14
CCOC(=O)C1=CC[C@@H](c2ccc(OC)cc2)N(S(=O)(=O)c2ccc(C)cc2)[C@H]1CC	1	-5	-12
COc1ccc(-c2nc3ccc(Cl)cn3c2Cc2cccc(Cl)c2)cc1OC	2	0	-2
Cc1ccc(C)c(S(=O)(=O)N2CCN(C(=O)[C@@H](NC(=O)c3ccc(F)cc3)C(C)C)CC2)c1	-7	-9	-1
CCCCNC(=O)COC(=O)C1CCN(S(=O)(=O)c2ccc3c(c2)OCCO3)CC1	-1	3	2
COc1cc(C(C)=O)ccc1OCC(=O)Nc1ccc(Cl)c(S(=O)(=O)N2CCOCC2)c1	-5	-22	-4
CC1=C(C(=O)N(C)C)CC(CC(=O)NCc2ccco2)C(=O)N1Cc1ccccc1 (stereo unspecified)	4	7	-6
CC(=O)c1ccc(S(=O)(=O)NCCC(=O)NCCc2c[nH]c3ccccc23)cc1	4	0	-11
COc1ccc(N2CCN(CC(=O)Nc3ccccc3C(=O)NCc3ccccc3)CC2)cc1	9	3	5
Cn1c(Cc2ccccc2)nc(=O)c2ccccc21	4	5	0

Whole records, quoted from the list. Screens in order: MT1-MMP act inh, MT1-MMP act inh RFP, UUG fidelity
`Nc1ncnc2c1ncn2[C@@H]1O[C@H](C(=O)NS(=O)(=O)c2c(Cl)nc3sccn23)[C@@H](O)[C@H]1O` is listed as 0, 4, -16
`CCOC(=O)C1=CC[C@@H](c2ccc(OC)cc2)N(S(=O)(=O)c2ccc(C)cc2)[C@H]1CC` is listed as 1, -5, -12
`CC(=O)c1ccc(S(=O)(=O)NCCC(=O)NCCc2c[nH]c3ccccc23)cc1` is listed as 4, 0, -11
`COc1ccc(C(=O)N2[C@@H](C(C)C)COc3cc(Br)ccc3S2(=O)=O)cc1` is listed as -2, -1, -14

The list is partial, so the mix of outcomes need not match the whole.
